High-throughput results as filed in PubChem.
MT1-MMP act inh – blockers of MT1-MMP proenzyme processing, primary screen, HT1080 RFP-PRO-GFP cells, GFP/RFP fluorescence; GFP/RFP ratio change, % at 20 µM; AID 651647, 2012; actives 0.061% (n = 360,000); GFP/RFP ratio fluorescence, overnight; percent of plate control window, DMSO zero;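 active = GFP/RFP ratio change of at least 30% with cell ATP level not reduced by more than half and red fluorescence within 50% of control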; also: strong numbers were not always called active
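Material – HT1080 RFP-PRO-GFP cells · Control set – DMSO wells and RFP-L50D-GFP cells · Incubation – overnight cell settling, then overnight compound exposure, 37 °C, 5% CO2 · Compound dosing – single-point 20 µM compound, 1% DMSO · Read-out – GFP/RFP fluorescence ratio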
PABP polyA inh – PABP poly(A) RNA binding inhibitors, primary screen, biochemical, fluorescence polarization, uHTS | actives 1% (n = 290,000) | Polyadenylate-binding protein 1 (Homo sapiens), P11940 | inhibition, % at 35 µM;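 active = 50% or more with normal probe brightness, or confirmed in later tests; inconclusive = above 50% with abnormal brightness, or retests that disagree; inactive = below 50% or failed in later tests; about a fifth of its hits are not listed in these tables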;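 also: calls also rest on retests at 20 µM and on dose response follow-up; controls were probe without protein and protein plus probe with vehicle; some compounds called inactive have numbers as strong as hits; many hits fall short of the cut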
Target sequence (P11940 whole entry, looked up): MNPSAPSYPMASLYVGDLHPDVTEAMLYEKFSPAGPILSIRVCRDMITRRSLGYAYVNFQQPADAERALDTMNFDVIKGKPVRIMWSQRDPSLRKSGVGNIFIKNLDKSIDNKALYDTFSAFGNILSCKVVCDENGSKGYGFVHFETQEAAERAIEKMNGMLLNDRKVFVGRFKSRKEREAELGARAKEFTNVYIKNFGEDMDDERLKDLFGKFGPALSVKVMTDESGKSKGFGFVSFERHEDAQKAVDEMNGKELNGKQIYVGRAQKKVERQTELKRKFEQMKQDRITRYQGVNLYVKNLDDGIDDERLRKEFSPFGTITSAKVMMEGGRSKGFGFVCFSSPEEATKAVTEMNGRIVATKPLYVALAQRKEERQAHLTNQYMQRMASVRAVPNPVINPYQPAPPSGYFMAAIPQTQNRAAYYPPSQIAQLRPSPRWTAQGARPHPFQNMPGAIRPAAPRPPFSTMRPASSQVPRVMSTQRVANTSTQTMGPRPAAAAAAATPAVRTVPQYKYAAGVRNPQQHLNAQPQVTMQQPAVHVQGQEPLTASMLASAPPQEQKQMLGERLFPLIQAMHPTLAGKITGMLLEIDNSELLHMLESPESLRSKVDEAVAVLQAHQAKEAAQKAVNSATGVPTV
CSC inhib – cancer stem cell viability inhibitors, primary screen, luminescence. cancer stem cell-like cells viability. inhibition, % at 7.5 µM. actives 1.1% (n = 300,000);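 active = mean at 75% or more and at least half the replicates too; inconclusive = mean and replicates disagree; tested in HMLE shEcad cells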;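 also: 0% = median of negative and 100% = median of positive control wells; the first replicate is given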
Yeast UUG start – modulators of yeast start codon fidelity, primary screen, whole organism, S. cerevisiae, single point, plate reader | activity score, % at 18.7 µM | actives 0.13% (n = 350,000) | S. cerevisiae UUG-firefly luciferase reporter, luminescence/redox ratio;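 active = replicate mean at a twofold rise or more, about +100% in these data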;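 also: firefly luciferase made from a UUG start codon reports start codon fidelity; reporter light over untreated wells divided by growth signal over untreated wells; some hits fall short of that in this replicate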
Rce1 inh – yeast Rce1p protease inhibitors, primary screen, biochemical, fluorescence, cell-free homogeneous | calls only | actives 0.27% (n = 290,000) | CAAX prenyl protease 2 (Saccharomyces cerevisiae (strain ATCC 204508 / S288c)), Q03530 | AID 2563, 2010 | yeast membranes, quenched prenylated peptide cleavage fluorescence;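 active = fall in fluorescence gain of 50% or more versus controls, with final raw signal at or below 3038400; inconclusive = same 50% fall but final raw signal above 3038400; inactive = fall in fluorescence gain under 50%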;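 also: plate controls were neutral control wells for no effect and wells lacking membranes for full effect; tested at 10 µM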
Target sequence (Q03530 whole entry, looked up): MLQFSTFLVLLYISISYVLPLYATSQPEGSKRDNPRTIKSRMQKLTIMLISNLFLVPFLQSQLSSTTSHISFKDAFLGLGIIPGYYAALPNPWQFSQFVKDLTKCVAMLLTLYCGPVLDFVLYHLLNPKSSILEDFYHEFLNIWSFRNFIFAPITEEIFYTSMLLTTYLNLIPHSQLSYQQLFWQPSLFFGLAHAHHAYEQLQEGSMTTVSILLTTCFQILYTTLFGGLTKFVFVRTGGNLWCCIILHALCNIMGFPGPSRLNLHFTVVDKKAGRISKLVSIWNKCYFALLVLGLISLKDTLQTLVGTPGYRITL
HIV Env fusion – inhibitors of HIV-1 Env-driven cell-cell fusion, primary screen, HeLa-JRFL effector, CEM21 target cells, luciferase. inhibition, % at 12.3 µM. actives 1.1% (n = 360,000). AID 651610, 2012;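 active = mean replicate inhibition score of at least 50 and every replicate individually at or above 50; inconclusive = only one of the two criteria met; inactive = mean below 50 and not all replicates reaching 50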;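 also: 0% = plate neutral controls and 100% = maraviroc near 300 nM; one replicate is shown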
eIF4H inh – human eIF4H binding inhibitors, primary screen, translation initiation inhibitor project, biochemical, uHTS, fluorescence polarization; Eukaryotic translation initiation factor 4H (Homo sapiens), Q15056; eIF4H fluorescence polarization binding assay; inhibition, % at 35 µM; actives 0.94% (n = 290,000); AID 2012, 2009;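 active = 50% or more with normal probe brightness, or confirmed in later tests; inconclusive = above 50% with abnormal brightness, or retests that disagree; inactive = below 50% or failed in later tests; about a fifth of its hits are not listed in these tables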;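 also: calls also rest on retests at 20 µM and on dose response follow-up; 0% = protein and probe with vehicle and 100% = probe without protein; strong numbers were not always called active; many hits fall short of the cut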
eIF4H inh retest – recorded beside eIF4H inh, whose call it bears; inhibition, %; compound at 20 µM; confirmation average;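 mean of two retest wells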
PABP polyA inh retest – recorded beside PABP polyA inh, whose call it bears; inhibition, %; compound at 20 µM; confirmation repeats;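 mean of two retest wells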
MT1-MMP act inh RFP – further read-out of MT1-MMP act inh, marked with its call; RFP signal change, %; measured here: RFP expression control read;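 0 = vehicle wells; hits needed this value within 50% of zero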
* = called active by the depositor; i = inactive; ? = inconclusive; . = not tested or not shown; + = active, no number.

SMILES	MT1-MMP act inh	MT1-MMP act inh RFP	PABP polyA inh	CSC inhib	Yeast UUG start	Rce1 inh	HIV Env fusion	eIF4H inh	others
CC(=O)c1ccc(S(=O)(=O)Nc2cccc(-n3cnnn3)c2)cc1	3.2	1.1	41.3*	-5.8	-9.1	i	-5.9	98.0*	eIF4H inh retest=99.2*;PABP polyA inh retest=92.4*
COc1ccc(OC)c(C(=O)NC(CC(N)=O)c2ccc(N3CCC(Cc4ccccc4)CC3)c([N+](=O)[O-])c2)c1 (stereo not given)	6.0	5.4	-2.1	2.4	-11.2	i	1.5	4.9
CCc1ccc(CN2CCC(n3nccc3NC(=O)Cc3ccccc3)CC2)o1	0.2	-3.5	-8.5	-14.3	-1.6	i	2.0	-6.9
CCOc1ccc(NC(=S)NCc2ccc3c(c2)OCO3)cc1	2.1	-0.8	5.8	3.2	0.4	i	-5.2	0.5
CCCS(=O)(=O)NC(=O)C1(C)CCCN(C(=O)c2ccc(C(F)(F)F)nc2C)C1 (stereo not given)	0.5	-1.4	.	.	-13.0	.	16.1	.
Clc1ccc(/C=C/c2nc3ccccc3[nH]2)c(Cl)c1	5.6	-5.6	-1.7	-17.9	-50.7	i	i	2.9
CCc1ccc(-c2nc(SCC(=O)N(C)C3CCS(=O)(=O)C3)n[nH]2)cc1 (stereo not given)	-3.1	1.4	.	-11.7	1.9	i	1.6	.
COc1cc(Cl)ccc1OCc1cc(C(=O)N2C[C@]3(C)C[C@H]2CC(C)(C)C3)no1	-1.7	-1.2	-7.9	25.8	-4.4	i	.	-13.5
Cc1nc(-c2ccc(NS(C)(=O)=O)cc2)cs1	1.0	0.5	-1.9	-5.1	-2.0	.	.	-0.6
COc1ccc(-c2cc(C)no2)cc1S(=O)(=O)NCc1ccc(OC(C)C)cc1	1.3	-4.0	0.1	4.8	-0.1	i	-0.2	-5.0
O=C(CSc1nn(-c2ccc(Cl)cc2)c(=S)s1)N1CCN(C(=O)c2ccco2)CC1	1.2	-2.8	1.2	20.4	3.5	i	.	-1.5
Cn1c(Cn2c(=O)sc3ccccc32)nnc1SCC(=O)Nc1cccc(Cl)c1	2.8	5.3	4.9	6.9	-5.0	.	1.6	10.3
Cc1nc(CS(=O)(=O)c2ccccc2)cc(Sc2ccc(Cl)cc2Cl)n1	-1.9	-9.7	0.6	-5.7	.	i	.	-3.9
CC1(C(=O)Nc2nccs2)CCN1C(=O)CC(c1ccccc1)c1ccccc1 (stereo not given)	-4.0	-5.9	.	.	-0.8	.	-42.0	.
Nc1nc(NCC2CCCO2)nc(Nc2ccccc2)c1[N+](=O)[O-] (stereo not given)	-0.5	-6.8	-5.0	.	-11.2	i	-4.1	-7.6
CCC(OC(=O)C(CC(C)C)NC(=O)c1ccccc1)C(=O)Nc1nnc(C)s1 (stereo not given)	-1.4	3.0	.	-11.9	-13.4	.	.	.
CCOc1ccccc1Nc1nc(N2CCCC2)nc(N2CCOCC2)n1	0.6	0.0	.	5.2	-3.3	i	38.1	.
Cc1nn(CCOc2ccccc2)c(=O)n1-c1ccccc1F	6.1	6.5	-6.3	.	-2.8	i	-79.4	2.0
O=c1c2c3c(sc2[nH]c(=S)n1Cc1ccco1)CCC3	-0.6	1.8	57.7*	28.4	-32.6	i	-15.2	81.3*
N#Cc1ccc(S(=O)(=O)N2CCN(CN3C(=O)CC4(CCCC4)C3=O)CC2)cc1	-1.2	-2.6	.	.	-8.2	.	9.0	.
COCCNC(=O)c1onc(CSc2ccc(F)cc2)c1C(=O)NCCOC	-0.6	5.4	1.2	-14.6	-41.2	i	-8.2	-4.7
CC(=O)NC(c1ccccc1)c1cc([N+](=O)[O-])c2cccnc2c1O (stereo not given)	3.5	5.0	-12.9	119.7*	-31.5	i	9.1	5.9
CCN(CC)Cc1c(O)c(Cl)cc2c(C)cc(=O)oc12	-0.7	6.4	-0.5	.	.	i	11.4	?
COC(=O)c1sccc1NC(=O)CSc1ccc(Cl)cc1	-3.2	-3.4	-2.4	.	-5.8	i	6.6	-3.5
COc1cc(/C=C(\CCC(=O)O)c2nc3ccccc3s2)ccc1OCC(=O)Nc1c(Cl)cccc1Cl	-4.2	2.1	.	23.0	-9.0	.	.	.

Going on with the list:
SMILES	MT1-MMP act inh	MT1-MMP act inh RFP	PABP polyA inh	CSC inhib	Yeast UUG start	Rce1 inh	HIV Env fusion	eIF4H inh	others
N#CCCNS(=O)(=O)c1ccc(C(=O)OCC(=O)Nc2ccc3c(c2)OCO3)cc1	0.5	4.0	.	-3.7	-23.0	.	0.2	.
O=C(C1=C[C@H](c2ccc(C(F)(F)F)cc2)C[C@H](OCCCCO)O1)N1CCN(Cc2ccccc2)CC1	-2.2	-3.5	1.1	-21.7	-5.9	i	17.3	6.1
COCC1CCCCC1OS(N)(=O)=O (stereo not given)	3.0	5.4	-6.3	-6.2	-1.3	i	10.0	-2.8
CN(C)/N=C1\C(=O)N(CN2CCN(c3ccccc3)CC2)c2ccccc21	3.2	-0.1	.	-4.1	-9.2	.	11.0	.
COc1cc(OC)c2c(-c3cccc(/C=C/c4ccc(F)cc4)c3)cc(=O)oc2c1	-5.4	-7.9	.	.	-11.5	.	-177.2	.
O=C(Nc1ccc(Br)cc1)c1ccc(Br)c(S(=O)(=O)Nc2cccnc2)c1	6.4	-0.8	2.2	31.9	-1.3	i	.	-5.8
OCCC1CN(Cc2nc3ccccc3s2)CCN1CCc1ccccc1 (stereo not given)	4.2	-0.2	7.8	5.5	-15.6	i	18.5	0.7
CC(=O)Nc1c(Cl)n(C(C)=O)c2ccccc12	-0.5	5.2	-7.4	9.6	-4.6	i	.	-1.5
CC(C)N(C(=O)[C@H]1C[C@H](CC(=O)NCCCN(C)C)C(=O)N2CCc3c([nH]c4ccc(Cl)cc34)[C@]12C)C(C)C	-6.0	-5.0	.	.	-8.8	.	-21.2	.
CC1=CC2=NC(=O)CC(C)(C(=O)N(CC(=O)NC3CCCC3)Cc3ccccc3)N2C=C1 (stereo not given)	2.9	2.6	6.7	-11.1	-1.2	+	-0.7	1.5
O=C(COC(=O)CCC(=O)c1cccs1)NC(=O)c1ccc(OC(F)F)cc1	-4.9	-0.9	-1.3	-24.8	.	i	9.3	-15.0
Cc1ccc(NC(=S)NC(=O)c2cncc(Br)c2)c(C)c1	-5.6	-7.6	.	-10.6	-26.3	i	11.4	.
CN(C(=O)CN(C)S(=O)(=O)c1ccc(F)cc1)c1c(N)n(Cc2ccccc2)c(=O)[nH]c1=O	-0.1	3.5	.	12.2	-5.5	i	2.6	.
Cc1cc2cc(CNC(=O)c3ccc(Br)o3)ccc2n1C	18.2	24.5	49.9	-2.6	-0.9	i	11.9	31.1
Cc1ccc(NC(=O)CSc2nnc(-c3cccs3)o2)cc1S(=O)(=O)N(C)C	.	.	-7.4	-3.5	.	i	.	1.7
O=C(c1cc(N2CCCCC2)nc2ccccc12)N1CCOCC1	-2.7	1.4	6.5	-8.8	-1.2	i	.	1.3
CC(=O)N1CCc2cc(S(=O)(=O)CCC(=O)N3CCN(c4ccccc4F)CC3)ccc21	2.4	-1.6	-6.2	13.2	-18.5	i	1.6	-2.1
COc1ccc(CN2C(=O)C(CC(=O)NCc3cccc4ccccc34)CC(C(=O)N(C(C)C)C(C)C)=C2C)cc1 (stereo not given)	-1.0	-4.9	.	.	3.9	.	16.5	.
Cc1ccc(NC(=S)N(C)N)cc1Cl	-0.2	1.7	-8.8	1.0	-28.9	i	1.5	-8.5
COc1ccc([N+](=O)[O-])cc1NC(=O)CCSCCc1ccccn1	4.8	3.2	-2.0	-7.8	.	i	-4.4	3.3
CC1(C(=O)NS(=O)(=O)c2cccc(C#N)c2)CCN1C(=O)Cc1ccccc1Cl (stereo not given)	-0.1	4.9	.	.	-7.1	.	-13.0	.
CC(=O)Oc1ccccc1/C=C/c1ccc2ccccc2[n+]1C	2.3	-0.8	72.8*	0.9	-8.1	i	-29.5	18.5	eIF4H inh retest=3.2;PABP polyA inh retest=103.0*
CCOC(=O)CN(c1cc([N+](=O)[O-])ccc1OC)S(C)(=O)=O	-2.2	1.6	12.4	4.3	.	i	10.1	-7.5
CN(Cc1ccc2c(c1)OCCO2)C(=O)CSc1ncnc2sccc12	1.4	-1.7	.	-12.6	5.3	.	-2.2	.
O=C(c1cccs1)N1CCN=C1SCc1ccccc1F	2.3	1.1	6.9	3.3	-16.8	i	-12.6	0.8

Later entries.
SMILES	MT1-MMP act inh	MT1-MMP act inh RFP	PABP polyA inh	CSC inhib	Yeast UUG start	Rce1 inh	HIV Env fusion	eIF4H inh	others
O=C(Cn1cnc2sc3c(c2c1=O)CCCC3)NCC(=O)Nc1c(F)cccc1F	-2.6	-3.1	10.4	-8.1	-17.6	i	7.4	-8.7
CCCn1c(O)c(N=NC(=O)CNC(=O)Cc2ccc(OC)cc2)c2ccccc21	1.4	6.1	14.7	21.1	-22.7	+	12.9	4.5
S=C1SCN(Cc2ccccc2)CN1Cc1ccccc1	4.2	2.9	19.3	.	-13.5	i	14.6	7.2
CC(C)OC(=O)c1cc2c(ccn2C)n1CC(=O)N(Cc1ccccc1)c1ccccc1	-2.1	-5.5	-2.5	23.9	.	i	42.8	12.6
CC1(C(=O)NS(=O)(=O)c2cccc(F)c2)CCN1C(=O)c1ccco1 (stereo not given)	2.1	-0.8	.	.	-9.5	.	2.9	.
COc1ccc(NC(=O)CC2C(=O)N(c3ccc(Cl)cc3)C(=S)N2CCc2ccncc2)cc1 (stereo not given)	-8.2	-11.3	-2.9	7.8	-14.7	i	.	4.2
COc1ccc(CCNC(=O)C2CCC(=O)N(C3CCCCCC3)C2)cc1 (stereo not given)	-4.6	-1.2	4.8	1.9	-0.8	i	-3.4	4.8
O=C(NNS(=O)(=O)c1ccc([N+](=O)[O-])cc1)c1ccccc1	-3.3	0.3	.	.	-7.4	.	-8.8	.
COc1ccc(NC(=O)/C(=C/c2ccc(OC(C)=O)c(OC)c2)NC(C)=O)cc1	-7.0	-2.3	4.3	-11.3	.	i	-0.8	-14.5
COc1cc(NC(=O)C23CC4CC(C2)CC(n2nnc(C)n2)(C4)C3)c(OC)cc1Cl	-12.3	-7.6	-5.2	-5.2	-18.3	i	26.0	-11.3
Cc1coc(NC(=O)CSc2nc(-c3ccncc3)cc(C(F)(F)F)c2C#N)n1	-155.4	21.6	118.4	-22.6	-26.0	i	?	126.6	eIF4H inh retest=-6.3;PABP polyA inh retest=21.0
O=C(Nc1cccc2c1C(=O)NC2=O)c1ccccc1[N+](=O)[O-]	-0.5	3.5	9.7	15.2	.	.	-7.7	12.0
CC(=O)OC1=Cc2c(ccc3ccc(=O)oc23)OC1(C)C	0.4	5.4	1.2	.	-36.0	i	.	-2.5
O=c1cc(-c2ccco2)nc(SCc2cccc(Cl)c2)[nH]1	3.5	9.6	2.7	-1.9	-12.6	i	3.5	3.9
CN(C(=O)c1cccc(C#N)c1)c1nnc(-c2ccncc2)s1	1.3	-2.2	-0.1	.	-7.0	.	-29.3	-12.5
O=C1Nc2ccccc2C1(O)C/C(=N/O)c1ccccc1 (stereo not given)	0.2	3.3	2.0	-0.1	.	i	18.3	0.8

An unsorted share of the library; overall some 2.9% were active at least once.
